Screening results: PubChem BioAssay, several laboratories
PABP FP inh = PABP poly(A) RNA binding inhibitors, primary screen, biochemical, fluorescence polarization, uHTS | inhibition, % at 35 µM | hit rate 1% among 290,000 | AID 2014, 2009;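 active means 50% or more with normal probe brightness, or confirmed in later tests; inconclusive means above 50% with abnormal brightness, or retests that disagree; inactive means below 50% or failed in later tests; about a fifth of its hits are not listed in these tables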;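 further: calls also rest on retests at 20 µM and on dose response follow-up; controls were probe without protein and protein plus probe with vehicle; some compounds called inactive have numbers as strong as hits; many hits fall short of the cut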
Target sequence (P11940 whole entry, looked up): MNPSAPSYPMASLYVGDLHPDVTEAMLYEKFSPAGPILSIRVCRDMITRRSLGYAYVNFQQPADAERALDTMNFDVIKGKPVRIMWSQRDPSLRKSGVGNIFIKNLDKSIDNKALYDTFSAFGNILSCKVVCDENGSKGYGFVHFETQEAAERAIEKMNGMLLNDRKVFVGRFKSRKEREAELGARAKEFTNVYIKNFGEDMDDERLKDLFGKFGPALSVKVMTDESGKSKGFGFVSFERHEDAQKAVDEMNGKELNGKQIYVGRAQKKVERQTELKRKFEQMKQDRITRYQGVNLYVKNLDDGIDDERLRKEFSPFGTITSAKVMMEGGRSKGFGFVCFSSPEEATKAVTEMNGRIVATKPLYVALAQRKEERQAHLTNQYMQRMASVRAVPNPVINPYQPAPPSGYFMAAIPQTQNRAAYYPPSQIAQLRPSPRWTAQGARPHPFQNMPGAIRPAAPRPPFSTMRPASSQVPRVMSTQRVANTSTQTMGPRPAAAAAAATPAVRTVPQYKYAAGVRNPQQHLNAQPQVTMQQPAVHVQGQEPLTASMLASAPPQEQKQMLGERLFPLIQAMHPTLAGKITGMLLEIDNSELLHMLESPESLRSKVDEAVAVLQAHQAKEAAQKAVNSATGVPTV
eIF4H FP inh = human eIF4H binding inhibitors, primary screen, translation initiation inhibitor project, biochemical, uHTS, fluorescence polarization. Eukaryotic translation initiation factor 4H (Homo sapiens), Q15056. eIF4H fluorescence polarization binding assay. inhibition, % at 35 µM. hit rate 0.94% among 290,000;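 active means 50% or more with normal probe brightness, or confirmed in later tests; inconclusive means above 50% with abnormal brightness, or retests that disagree; inactive means below 50% or failed in later tests; about a fifth of its hits are not listed in these tables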;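 further: calls also rest on retests at 20 µM and on dose response follow-up; 0% = protein and probe with vehicle and 100% = probe without protein; strong numbers were not always called active; many hits fall short of the cut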
CSC inhib = cancer stem cell viability inhibitors, primary screen, luminescence; inhibition, % at 7.5 µM; hit rate 1.1% among 300,000; cancer stem cell-like cells viability;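 active means mean at 75% or more and at least half the replicates too; inconclusive means mean and replicates disagree; tested in HMLE shEcad cells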;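 further: 0% = median of negative and 100% = median of positive control wells; the first replicate is given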
UUG fidelity = modulators of yeast start codon fidelity, primary screen, whole organism, S. cerevisiae, single point, plate reader; activity score, % at 18.7 µM; hit rate 0.13% among 350,000; S. cerevisiae UUG-firefly luciferase reporter, luminescence/redox ratio;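 active means replicate mean at a twofold rise or more, about +100% in these data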;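 further: firefly luciferase made from a UUG start codon reports start codon fidelity; reporter light over untreated wells divided by growth signal over untreated wells; some hits fall short of that in this replicate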
Rce1 inhib = yeast Rce1p protease inhibitors, primary screen, biochemical, fluorescence, cell-free homogeneous; hit rate 0.27% among 290,000; calls only; CAAX prenyl protease 2 (Saccharomyces cerevisiae (strain ATCC 204508 / S288c)), Q03530; yeast membranes, quenched prenylated peptide cleavage fluorescence;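 active means fall in fluorescence gain of 50% or more versus controls, with final raw signal at or below 3038400; inconclusive means same 50% fall but final raw signal above 3038400; inactive means fall in fluorescence gain under 50%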;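 further: plate controls were neutral control wells for no effect and wells lacking membranes for full effect; tested at 10 µM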
Target sequence (Q03530 whole entry, looked up): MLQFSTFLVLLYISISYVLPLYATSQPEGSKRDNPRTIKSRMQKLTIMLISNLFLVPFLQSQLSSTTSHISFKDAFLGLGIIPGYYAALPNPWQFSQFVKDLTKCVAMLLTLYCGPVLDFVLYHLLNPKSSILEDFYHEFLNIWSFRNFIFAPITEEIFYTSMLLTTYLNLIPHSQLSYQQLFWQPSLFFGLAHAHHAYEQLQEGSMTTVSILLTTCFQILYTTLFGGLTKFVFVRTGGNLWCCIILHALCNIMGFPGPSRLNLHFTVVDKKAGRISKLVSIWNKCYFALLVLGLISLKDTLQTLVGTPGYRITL
MT1-MMP act inh = blockers of MT1-MMP proenzyme processing, primary screen, HT1080 RFP-PRO-GFP cells, GFP/RFP fluorescence | Matrix metalloproteinase-14 (Homo sapiens), P50281 | GFP/RFP ratio fluorescence, overnight; percent of plate control window, DMSO zero | GFP/RFP ratio change, % at 20 µM | hit rate 0.061% among 360,000;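 active means GFP/RFP ratio change of at least 30% with cell ATP level not reduced by more than half and red fluorescence within 50% of control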; further: strong numbers were not always called active
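system = RFP-PRO-GFP reporter HT1080 cells | dosing = 20 µM single dose, 1% DMSO | timing = overnight cell settling, then overnight compound exposure, 37 °C, 5% CO2 | read-out basis = GFP/RFP fluorescence ratio | controls = DMSO and RFP-L50D-GFP cell wells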
Env fusion inh = inhibitors of HIV-1 Env-driven cell-cell fusion, primary screen, HeLa-JRFL effector, CEM21 target cells, luciferase | inhibition, % at 12.3 µM | hit rate 1.1% among 360,000 | AID 651610, 2012;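 active means mean replicate inhibition score of at least 50 and every replicate individually at or above 50; inconclusive means only one of the two criteria met; inactive means mean below 50 and not all replicates reaching 50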;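 further: 0% = plate neutral controls and 100% = maraviroc near 300 nM; one replicate is shown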
eIF4H FP inh retest = also measured in eIF4H FP inh; calls as there; inhibition, %; compound at 20 µM; confirmation average;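 mean of two retest wells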
PABP FP inh retest = recorded beside PABP FP inh, whose call it bears; inhibition, %; compound at 20 µM; confirmation repeats;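 mean of two retest wells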
MT1-MMP act inh RFP = also measured in MT1-MMP act inh; calls as there; RFP signal change, %; measured here: RFP expression control read;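 0 = vehicle wells; hits needed this value within 50% of zero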
* = called active by the depositor; i = inactive; ? = inconclusive; . = not tested or not shown. Only part of the results is shown, so the mix of outcomes need not match the whole.

SMILES	PABP FP inh	eIF4H FP inh	CSC inhib	UUG fidelity	Rce1 inhib	MT1-MMP act inh	MT1-MMP act inh RFP	Env fusion inh	others
Cc1ccc(OC(=O)COc2ccccc2C)cc1	1	1	-12	.	i	1	4	-9
COC(=O)c1c(NC(=O)CCc2ccc(C)o2)sc(C)c1C	2	2	-7	-3	i	-5	2	.
COc1cccc(-c2nc(CS(=O)CC(=O)NC(C)CCc3ccccc3)c(C)o2)c1 (stereo not given)	12	-6	-13	-7	i	1	0	-11
COc1cccc(CNc2nc3cc(-c4cccc(C(=O)NCCO)c4)sc3c(=O)n2C)c1	.	.	.	-19	.	0	8	-2
CC1CCCN(C(=O)Cc2cn(Cc3cccc(Cl)c3)c3ccccc23)C1 (stereo not given)	30	-2	21	.	i	-7	-24	.
C=CCN=C(NC#N)SC	7	-7	29	-11	i	2	-1	2
CCCC(=O)C1=C(O)C(C(=O)OC)C(C)(C)CC1=Nc1ccc(C)cc1 (stereo not given)	-1	-4	10	.	i	-4	-4	-28
CCOCC(=O)N1CCc2ccccc21	-1	4	-4	-20	i	2	4	.
CN(C(=O)C1CCC(=O)N(Cc2ccccc2F)C1)C1CCOCC1 (stereo not given)	-6	-5	-5	2	i	-4	-2	-2
CC(C)CC(=O)NC(=S)Nc1nc(-c2ccccc2)cs1	5	-19	1	-1	i	1	1	-23
COc1cccc(/C=C/C(=O)OCC(=O)N2CCCc3ccccc32)c1	.	.	-4	-10	i	-2	-3	6
CCNNC(=O)C(O)(c1cccc(C)c1)c1cccc(C)c1	5	-3	-24	.	i	1	2	-36
CCn1ncc([N+](=O)[O-])c1C(=O)Nc1c(C)nn(Cc2ccc(F)cc2)c1C	2	1	-10	-19	i	-2	3	-1
Oc1ccc(C[C@@H]2CNCCN2CCC23CC4CC(CC(C4)C2)C3)cc1	.	.	13	-8	i	-6	1	-12
CCOc1cc(/C=N\NC(=O)c2ccc(NC(=O)C(C)(C)C)cc2)ccc1OC(=O)c1ccc(C)cc1	2	-3	2	-9	i	3	-2	7
CCOC(=O)CC(NS(=O)(=O)c1ccc(OC)c(C)c1)c1cccc([N+](=O)[O-])c1 (stereo not given)	-17	-11	-9	.	i	3	2	33
Cc1cc(C)n(S(=O)(=O)c2cc(C)c(C)cc2C)n1	-6	-5	-11	-3	i	2	-7	-63
C/C(=N\N=C1/NC(=O)C(C)S1)c1ccc([N+](=O)[O-])cc1 (stereo not given)	4	-1	1	-17	i	3	6	-19
Cc1ccc(S(=O)(=O)N2CCCC2C(=O)NC2CCCCC2)cc1 (stereo not given)	-1	0	-4	7	i	4	1	.
CCOC(=O)N1CCN(C(=O)c2cc3cc(Br)ccc3oc2=O)CC1	-1	-4	0	-11	i	0	5	-2
COCCN1C(=O)C(=O)/C(=C(/O)c2ccc(S(=O)(=O)N3CCOCC3)cc2)C1c1ccc(OC)c(OC)c1 (stereo not given)	34	53	0	-14	i	-2	1	-17	eIF4H FP inh retest=33;PABP FP inh retest=48
O=C(O)/C(=C/c1ccco1)NC(=O)c1ccc(Br)o1	8	12	-4	-13	i	-4	2	0
C[C@@]12CCC=C[C@H]1[C@H](c1ccccc1Br)N(Cc1ccccc1)C2=O	.	.	.	6	.	-7	-7	-42
Cc1ccccc1CNc1nc(N)n(-c2ccccc2)n1	12	-3	-4	-20	i	5	6	-19
COc1ccc(NC(=O)C2(C)CCN2Cc2ccc3ccccc3c2)cc1OC (stereo not given)	.	.	.	-2	.	-1	-7	18
CCOc1ccc(NC(=O)CSc2nc3ccccc3c(=O)n2CCCC(=O)NCC2CCCO2)cc1 (stereo not given)	-8	-5	-30	.	i	4	6	-3
Cc1cccc(NC(=O)c2ccccc2NC(=O)c2ccco2)c1	12	-2	-7	-8	i	-3	-1	-1
Cc1cccc(-n2cnc3cc(C(=O)N4CCc5ccccc54)ccc32)c1	4	4	5	.	i	-1	-4	0
CC(C)(C)c1ccc(C(=O)NCc2nnc(SCC(=O)NCC3CCCO3)o2)cc1 (stereo not given)	12	78	0	-16	i	2	0	-17	eIF4H FP inh retest=2;PABP FP inh retest=12
CCN(CC)C1CCN(C(=O)c2cc(COc3ccc(F)cc3Cl)on2)C1 (stereo not given)	1	-8	?	.	i	1	4	-6
CCOC(=O)C1=C(C)N=C2SC(C)C(=O)N2C1/C=C/c1ccccc1OC (stereo not given)	2	-11	-4	-12	i	-20	-11	.
CCOC(=O)c1nn(-c2ccccc2Cl)c(=O)cc1OCC(=O)Nc1cccc(OC)c1	.	.	5	-20	i	3	-6	6
Cc1cc(NC(=O)CSc2c[nH]c3ccccc23)no1	-9	7	-1	-14	i	0	4	-47
Cc1ccc(-n2c(C)nnc2SCC(=O)N2CCc3ccccc3C2)cc1	3	14	8	.	i	1	0	-14
CCOc1ccc(N=Nc2c(=O)[nH]n3c(=O)c4c([nH]c23)CCCC4)cc1	-11	36	12	.	i	25	4	-1
Nc1cc(Cl)ccc1N1CCOCC1	-13	0	0	-6	i	9	6	.
O=C(Cc1cccs1)N1CCN=C1SCc1ccc(F)cc1	0	3	-2	.	i	7	5	3
COc1ccc(CNC(=O)C(C)OC(=O)c2cccc(N(C)C)c2)cc1 (stereo not given)	.	.	-12	-2	.	2	-1	13
COc1ccc(-c2csc(N)n2)cc1	3	-9	-9	.	i	5	1	-16
COc1cc(CNCc2cccs2)ccc1OCC(N)=O	2	-3	-16	.	i	-8	0	.
COc1ccc(NC(=O)CN(C)C(=O)CCSc2ccc(C)cc2)cc1	.	.	-15	-7	i	1	3	4
Cc1ccc(CN2CCNC(=O)C2CC(=O)NCCCn2ncc3ccccc32)o1 (stereo not given)	8	13	.	.	.	2	9	27
CCOc1ccc(C2CC(c3c(O)c4ccccc4oc3=O)=NN2c2ccccc2)cc1OC (stereo not given)	3	3	2	.	i	-144	0	5
Cc1ccc(-c2nc(CNC(=O)c3ccco3)cs2)cc1	-8	-2	5	14	i	4	-5	.
O=C1CN(C(=O)CN2C(=O)NC(c3ccccc3)(c3ccccc3)C2=O)c2ccccc2N1	.	.	-10	-9	.	3	0	.
Cc1ccc(C(=O)N/N=C/c2ccc(-c3cccc(Cl)c3)o2)cn1	2	-7	39	.	i	5	-1	14
CC(C)(C)NC(=O)C(c1ccc(F)cc1)N(Cc1ccco1)C(=O)CCC(=O)Nc1ccccn1 (stereo not given)	5	6	-14	-3	i	-2	-1	10
O=C(NCCc1ccccc1)C1CCN(C(=O)c2ccc(F)cc2)CC1	-2	-8	-12	-10	i	4	1	-11
O=C(Nc1ccc(Cl)c(Cl)c1)C1CCCCC1	.	.	10	0	.	-3	-1	-24
CCCCOc1ccc(C(=O)NCCOc2cccc(OC)c2)cc1	1	-1	11	5	i	1	2	14

Continuation.
SMILES	PABP FP inh	eIF4H FP inh	CSC inhib	UUG fidelity	Rce1 inhib	MT1-MMP act inh	MT1-MMP act inh RFP	Env fusion inh	others
CCOc1ccc(-c2nc(C#N)c(NCc3ccco3)o2)cc1	2	8	0	.	i	9	-2	-3
O=C(COC(=O)c1ccc(Cl)cc1O)NC(=O)C1CCCCC1	-6	8	0	.	i	3	4	-5
O=C(NCCCn1ccnc1)c1cc(-c2ccc(Cl)cc2)nc2ccccc12	-10	2	-15	-6	i	2	-2	.
O=C(CCNS(=O)(=O)c1ccc(OC(F)(F)F)cc1)N1CCN(S(=O)(=O)c2cccc(F)c2)CC1	.	.	-5	-11	i	-4	-8	5
O=C1C2C3C=CC(C3)C2C(=O)N1c1cccc(-c2nc3ccccc3o2)c1 (stereo not given)	40	26	-8	-10	i	4	0	.
Cc1nn(Cc2ccccc2Cl)c(C)c1NC(=O)CCCn1nc([N+](=O)[O-])c(Cl)c1C	0	-2	6	0	i	5	-4	-13
CCS(=O)(=O)NCC(c1cccnc1)N1CCN(c2ccc(OC)cc2)CC1 (stereo not given)	5	-4	-12	.	i	1	3	-4
CCOC(=O)c1c(NC(=O)COc2ccc3ccc(=O)oc3c2)sc(C(=O)N(C)C)c1C	0	2	12	-4	i	-3	0	.
COC(=O)CCC(=O)Nc1cccc2c(NC(=O)CCC(=O)OC)cccc12	-2	4	.	-3	i	2	5	.
O=C(CSc1nnc(-c2cccs2)n1-c1ccccc1)N1CCCc2ccccc21	-2	-4	.	-13	i	-2	-6	-66
Cc1cc(C)cc(NC(=O)CNC(c2ccccc2)c2ccccc2)c1	14	-2	39	2	i	-1	-4	19
NC(=O)c1cnn(C2CCS(=O)(=O)C2)c1 (stereo not given)	-14	10	6	.	i	0	6	17
Cc1ccc(C(=O)O)cc1NC(=S)NC(=O)c1ccc(-c2ccccc2)cc1	19	6	2	12	i	8	1	-83
COc1ccc(C(=O)Nc2ccc(NC(=O)c3cccs3)c(OC)c2)cc1Cl	6	1	4	-13	i	4	1	12
CC(=O)NCCc1ccc(C(=O)COC(=O)c2cccn2C)cc1	.	.	-18	-66	.	1	5	-41
CC1=C(C#N)C(NC(=O)C2CCCCC2)(C(F)(F)F)C(=O)N1 (stereo not given)	4	3	-8	.	i	7	4	-101
COc1ccc(/C=C2/CCCC(C(=O)C(F)(F)F)=C2O)cc1OC	3	14	8	-4	i	2	-3	14
COc1ccc(-c2nc(N3CCN(C)CC3)sc2-c2ccc(OC)cc2)cc1	-6	-6	36	-25	i	-11	-8	7
Nc1n[nH]c(C2CCCCC2)n1	-2	-9	-12	.	i	1	3	2
CC(=O)NC(c1ccccc1)c1nc(-c2cc3ccccc3o2)cs1 (stereo not given)	.	.	.	-18	.	6	0	0
CCc1c(C)c(C#N)c2nc3ccccc3n2c1NCc1ccco1	13	0	-5	-9	i	-7	-3	.
CCn1c(=O)cc(SCC(=O)Nc2cc(OC)c(OC)c(OC)c2)c2ccccc21	-1	-4	8	10	i	7	9	9
N=C1/C(=C\c2ccc(OC(=O)c3ccccc3)cc2)C(=O)N=C2SC(N3CCOCC3)=NN12	-2	5	16	-25	i	-5	2	-35
COc1ccc(NC(=O)c2cccc(N3C(=O)C4C5C=CC(C5)C4C3=O)c2)c(OC)c1 (stereo not given)	-16	-13	8	-13	i	2	-2	1
COc1cccc(NC(=O)CN(C)C(=O)c2ccc(-c3ccccc3Cl)o2)c1	-6	-6	17	-27	i	0	0	5
CCNC(=O)C(C)Sc1ccc(Cl)cc1 (stereo not given)	19	-2	1	-32	i	3	4	-18

Random excerpt: 4 compounds from above, in no set order.
SMILES	PABP FP inh	eIF4H FP inh	CSC inhib	UUG fidelity	Rce1 inhib	MT1-MMP act inh	MT1-MMP act inh RFP	Env fusion inh	others
N=C1/C(=C\c2ccc(OC(=O)c3ccccc3)cc2)C(=O)N=C2SC(N3CCOCC3)=NN12	-2	5	16	-25	i	-5	2	-35
COc1cccc(NC(=O)CN(C)C(=O)c2ccc(-c3ccccc3Cl)o2)c1	-6	-6	17	-27	i	0	0	5
CCc1c(C)c(C#N)c2nc3ccccc3n2c1NCc1ccco1	13	0	-5	-9	i	-7	-3	.
COc1ccc(NC(=O)c2cccc(N3C(=O)C4C5C=CC(C5)C4C3=O)c2)c(OC)c1 (stereo not given)	-16	-13	8	-13	i	2	-2	1
